Vaccinia Venus = inhibitors of vaccinia virus (Venus reporter). AID 720580. Potency, µM (titrated, usually from 36.5 µM), without a hit: at the top dose activity change, negative = inhibition, actives largely listed as inhibitors. Vaccinia virus Venus reporter expression, fluorescence. 0.46% of 330,000 active; active means well fitted inhibition curve with a large enough effect; inconclusive means small, poorly fitted or top-dose-only effect; inactive means no such curve, though single readings can be large or run the other way; tested in A549 cells; also: nearly all actives have a fitted effect of over 30% in size; inactives centre near -10
VACV mCherry inh = vaccinia inhibition (mCherry reporter) | Vaccinia virus mCherry reporter infection, fluorescence; about a quarter of the inactives have no number | Potency, µM (highest dose often 36.5 µM), inactives show at the top dose activity change, negative = inhibition, actives largely listed as inhibitors | 0.63% of 310,000 active | AID 720579; active = well fitted inhibition curve with a large enough effect; inconclusive = small, poorly fitted or top-dose-only effect; inactive = no such curve, though single readings can be large or run the other way; tested in A549 cells; also: nearly all actives have a fitted effect of over 35% in size; inactives centre near -10
Starred values were filed as active, the others as inactive; & = joins results of further samples. % is scaled to controls: 0 for no effect and ±100 for the full control effect; potency is read from the fitted curve at half-maximal effect. Outcome played no part in choosing rows, and some 0.82% of all compounds hit somewhere here.

`O=C(NNc1ccccc1C(F)(F)F)c1cccs1` gave Vaccinia Venus -9% and VACV mCherry inh -13%.
O=C(O)c1cc2ccc3ccccc3c2[nH]1 was read as Vaccinia Venus -3% and VACV mCherry inh inactive.
Fc1cccc2sc(Nc3nnc(-c4ccccc4)o3)nc12 was read as Vaccinia Venus -28% and VACV mCherry inh inconclusive.
For CCC(C)c1ccccc1OCCOCCN1CCCC1 (configuration not stated) the results were Vaccinia Venus -6% and VACV mCherry inh -16%.
`O=[N+]([O-])c1cccc(CN2CCC(Cc3ccccc3)CC2)c1` gave Vaccinia Venus -15% and VACV mCherry inh -7%.
Screening CC(C)OCCCn1c(SC(C)C(=O)NCC2CCCO2)nc2cc(Cl)ccc2c1=O (configuration not stated) returned Vaccinia Venus -12% and VACV mCherry inh -10%.
`COc1ccccc1N1CCNCC1` gave Vaccinia Venus -5%&-15% and VACV mCherry inh -13%.
Screening Nc1nc(NCCCN2CCOCC2)nc(Nc2ccccc2)c1[N+](=O)[O-] returned Vaccinia Venus -26% and VACV mCherry inh -4%.
`CC(=O)c1ccc(N2CCN(C(=O)C3CCCN(S(=O)(=O)c4c(C)[nH]c(=O)[nH]c4=O)C3)CC2)cc1` (configuration not stated) gave Vaccinia Venus -1% and VACV mCherry inh -1%.
For O=C(CCCOc1ccccc1)Nc1nc2ccccc2[nH]1 the results were Vaccinia Venus -12% and VACV mCherry inh -14%.
`O=C(Nc1ccc(F)cc1)Nc1cccnc1` gave Vaccinia Venus -10% and VACV mCherry inh -2%.
CCOc1ccc2oc(=O)cc(CN3CCN(C(=O)c4ccc(OC)c(OC)c4)CC3)c2c1 was read as Vaccinia Venus -10% and VACV mCherry inh -19%.
`CCO[C@@H]1OC(C(=O)NC2CC2)=C[C@H](c2ccc3c(c2)OCO3)[C@H]1CCCO` gave Vaccinia Venus -5% and VACV mCherry inh inactive.
For O=C(O)C1CCN(S(=O)(=O)c2cccnc2)CC1 the results were Vaccinia Venus -29%.
CC1(Br)C2CCCC1C2S(=O)(=O)c1ccccc1 (configuration not stated) was read as Vaccinia Venus -11% and VACV mCherry inh -10%.
For O=C(O)c1[nH]c2ccccc2c1C=NCc1ccccc1Cl the results were Vaccinia Venus -4% and VACV mCherry inh inactive.
For Cn1c2ccccc2c2c(C(=O)NCc3ccco3)cn(C3CCCCC3)c(=O)c21 the results were Vaccinia Venus -3% and VACV mCherry inh -13%.
`COc1cccc(-c2cc(C(=O)Nn3cnnc3)c3ccccc3n2)c1` gave Vaccinia Venus -10% and VACV mCherry inh inactive.
CN(C)c1ccc(/C=C/c2c(Br)cnc3ccccc23)cc1 was read as Vaccinia Venus -18% and VACV mCherry inh -17%.
CSCCC(NS(=O)(=O)c1ccc2c(c1)oc(=O)n2C)C(=O)N1CCN(c2ccc(C(C)=O)cc2)CC1 (configuration not stated) was read as Vaccinia Venus -4% and VACV mCherry inh -24%.
O=C(CCn1ccc2cc(S(=O)(=O)N3CCCC3)ccc21)NCc1cccc(Cl)c1 was read as Vaccinia Venus -4% and VACV mCherry inh -12%.
CC1(C)SC(=S)N(/N=C/c2cccnc2)C1N(O)C(=O)NC1CCCCC1 (configuration not stated) was read as Vaccinia Venus -4% and VACV mCherry inh inactive.
Cc1ccc2ncc(C(=O)Nc3ccc(OC(F)(F)F)cc3)c(=O)n2c1 was read as Vaccinia Venus -17% and VACV mCherry inh -18%.
Screening CCC1ON(c2ccccc2)C2c3nc4ccccc4n3CC12 (configuration not stated) returned Vaccinia Venus -9% and VACV mCherry inh -12%.
For Cc1occc1C(=O)NNC(=O)NC12CC3CC(CC(C3)C1)C2 the results were Vaccinia Venus -4% and VACV mCherry inh -20%.
COc1ccc(C(=O)N2CCc3cc(OC)c(OC)cc3C2COc2ccc3c(C)cc(=O)oc3c2)c(OC)c1 (configuration not stated) was read as Vaccinia Venus 3% and VACV mCherry inh -11%.
COc1ccc(CNC(=O)CCS(=O)(=O)c2cc3c(cc2Cl)NC(=O)CO3)cc1 was read as Vaccinia Venus -17% and VACV mCherry inh inactive.
For Cc1nc(C)c(C(=O)NNC(=O)c2ccc(Br)cc2)s1 the results were Vaccinia Venus -3% and VACV mCherry inh -4%.
`Cc1nn(CC(=O)NCc2ccc(-n3cccn3)cc2)c(C)c1[N+](=O)[O-]` gave Vaccinia Venus -2% and VACV mCherry inh -12%.
COc1ccccc1N1CCC(N2CCN(CC(C)(C)C)C(CCO)C2)CC1 (configuration not stated) was read as Vaccinia Venus -4% and VACV mCherry inh -8%.
Screening C=CC[C@@H](CC(=O)NCCO)C(=O)NC[C@@H](OC(=O)[C@H](CC=C)CC(=O)OC(C)(C)C)c1ccccc1 returned Vaccinia Venus -24% and VACV mCherry inh inactive.
`CCN(CC)S(=O)(=O)c1ccc(OC(C)C)c(NC(=O)c2c3c(nc4ccccc24)CCN(Cc2ccccc2)C3)c1` gave Vaccinia Venus -19% and VACV mCherry inh -3%.
`CC1(C)C(=O)Nc2ccccc2N1C(=O)COC(=O)c1ccc(Cl)c(S(=O)(=O)NCc2ccccc2)c1` gave Vaccinia Venus -15% and VACV mCherry inh -22%.
`C[C@H]1CN([C@@H](C)CO)C(=O)CCCn2nncc2CO[C@H]1CN(C)C(=O)Oc1cccc2ccccc12` gave Vaccinia Venus -20% and VACV mCherry inh -12%.
For C#CCn1c(=NC(=O)c2cccs2)sc2cccc(OC)c21 the results were Vaccinia Venus -18% and VACV mCherry inh -1%.
CCc1ccc(NC(=O)c2cc3c(=O)n(Cc4cccnc4)ccc3nc2C)cc1 was read as Vaccinia Venus -12% and VACV mCherry inh -17%.
Screening CCOC(=O)C1=C(N)OC2=C(C(=O)CCC2)C12C(=O)N(CC(N)=O)c1ccccc12 (configuration not stated) returned Vaccinia Venus 1%.
For Cc1ccc(Cl)cc1NC(=S)N(Cc1cccs1)C1CCCC1 the results were Vaccinia Venus 0% and VACV mCherry inh -25%.
For Cc1cc(C)n(CC(O)CN(c2cccc([N+](=O)[O-])c2)S(=O)(=O)c2ccccc2)n1 (configuration not stated) the results were Vaccinia Venus -11% and VACV mCherry inh -14%.
For COc1ccc(N2CCN(C(=O)c3cccc(F)c3)CC2)c([N+](=O)[O-])c1 the results were Vaccinia Venus -4% and VACV mCherry inh inactive.
For COC(=O)C1C2C=CC3(CN(CC4CCCO4)C(=O)C13)O2 (configuration not stated) the results were Vaccinia Venus 4% and VACV mCherry inh -7%.
For O=C(Nc1ccc2c(c1)OCCO2)C(c1ccncc1)n1c(=O)c(-c2cc3ccccc3[nH]2)nc2ccccc21 (configuration not stated) the results were Vaccinia Venus inconclusive and VACV mCherry inh inconclusive.
For COc1ccc2nc(Cl)c(C#N)cc2c1 the results were Vaccinia Venus -20% and VACV mCherry inh -1%.
`COc1ccc(OC)c(/C=C/c2ccc3ccccc3[n+]2C)c1` gave Vaccinia Venus 11% and VACV mCherry inh 26%.
`Cc1ccc(NC(=O)COC(=O)c2cccc(S(=O)(=O)N3CCCCCC3)c2)cc1` gave Vaccinia Venus -9% and VACV mCherry inh -11%.

Among those listed so far, these have a tert-butyl group.
COc1ccccc1N1CCC(N2CCN(CC(C)(C)C)C(CCO)C2)CC1 (configuration not stated) was read as Vaccinia Venus -4% and VACV mCherry inh -8%.
Screening C=CC[C@@H](CC(=O)NCCO)C(=O)NC[C@@H](OC(=O)[C@H](CC=C)CC(=O)OC(C)(C)C)c1ccccc1 returned Vaccinia Venus -24% and VACV mCherry inh inactive.

Remaining list, next part.
Screening Cc1cc(C)nc(NCCC(=O)O)n1 returned Vaccinia Venus 4% and VACV mCherry inh 7%.
CC(C)Oc1nc(-c2ccccc2Cl)nc2ccccc12 was read as Vaccinia Venus 4% and VACV mCherry inh -1%.
`NC1=NC(=Nc2ccc(Br)cc2)c2ccccc21` gave Vaccinia Venus inconclusive and VACV mCherry inh inconclusive.
Cc1cc(NCCCN2CCOCC2)n2ncc(-c3ccccc3)c2n1 was read as Vaccinia Venus inconclusive.
For CC(C)(C)C(=O)COC(=O)c1ccc(N)c([N+](=O)[O-])c1 the results were Vaccinia Venus -11% and VACV mCherry inh 0%.
Screening COc1ccc(NC(=O)C2CCN(S(=O)(=O)c3ccc(OC)c(OC)c3)CC2)cc1 returned Vaccinia Venus 5% and VACV mCherry inh 3%.
`CCOC(=O)N1CCN(C(=O)C(C)(C)Oc2ccc(Cl)cc2)CC1` gave Vaccinia Venus 0% and VACV mCherry inh -3%.
Screening COc1cc(/C=N/NC(=O)c2ccoc2C)cc(OC)c1O returned Vaccinia Venus -10% and VACV mCherry inh -19%.
O=C(NCCCC1CCCC1)C1CCC(=O)N(Cc2ccc(Cl)cc2)C1 (configuration not stated) was read as Vaccinia Venus -23% and VACV mCherry inh -28%.
Cc1ccc2c(c1)N(C(=O)NC1CCCCC1)C(C)(C)CC2C (configuration not stated) was read as Vaccinia Venus -12% and VACV mCherry inh -10%.
`CN(Cc1ccco1)S(=O)(=O)c1nnc(NC(=O)c2ccccc2)s1` gave Vaccinia Venus -7% and VACV mCherry inh -1%.
N#Cc1ccc(/C=C/C(=O)c2ccco2)cc1 was read as Vaccinia Venus -17% and VACV mCherry inh -19%.
For CC1(C)CC(=O)C=C(c2cn[nH]n2)C1 the results were Vaccinia Venus -23% and VACV mCherry inh -15%.
For CC(C)OC(=O)CSc1nc(N)c(C#N)cc1C#N the results were Vaccinia Venus -14% and VACV mCherry inh -1%.
Cc1csc2nc(COC(=O)c3ccc(NC(=O)COc4ccccc4F)cc3)cc(=O)n12 was read as Vaccinia Venus -9% and VACV mCherry inh inactive.

Compounds from the list above that have a nitro group on carbon, in the order listed:
`O=[N+]([O-])c1cccc(CN2CCC(Cc3ccccc3)CC2)c1` gave Vaccinia Venus -15% and VACV mCherry inh -7%.
Screening Nc1nc(NCCCN2CCOCC2)nc(Nc2ccccc2)c1[N+](=O)[O-] returned Vaccinia Venus -26% and VACV mCherry inh -4%.
`Cc1nn(CC(=O)NCc2ccc(-n3cccn3)cc2)c(C)c1[N+](=O)[O-]` gave Vaccinia Venus -2% and VACV mCherry inh -12%.
For Cc1cc(C)n(CC(O)CN(c2cccc([N+](=O)[O-])c2)S(=O)(=O)c2ccccc2)n1 (configuration not stated) the results were Vaccinia Venus -11% and VACV mCherry inh -14%.
For COc1ccc(N2CCN(C(=O)c3cccc(F)c3)CC2)c([N+](=O)[O-])c1 the results were Vaccinia Venus -4% and VACV mCherry inh inactive.
For CC(C)(C)C(=O)COC(=O)c1ccc(N)c([N+](=O)[O-])c1 the results were Vaccinia Venus -11% and VACV mCherry inh 0%.

(continued)
`Cc1nn(CC(C)C)c(Cl)c1C(=O)NCC1CCCO1` (configuration not stated) gave Vaccinia Venus -12% and VACV mCherry inh -11%.
For CCc1ccc2occ(CC(=O)Nc3ccc(C)c(C)c3)c2c1 the results were Vaccinia Venus -4% and VACV mCherry inh -4%.
`O=C(NCc1ccncc1)C12CC3CC(CC(C3)C1)C2` gave Vaccinia Venus -14%.
Cc1ccc(NC(=O)C(Cc2ccccc2)NS(=O)(=O)c2ccc3c(c2)oc(=O)n3C)cc1C (configuration not stated) was read as Vaccinia Venus -14% and VACV mCherry inh -16%.
O=C1N[C@H](Cc2ccccc2)COC(=O)[C@H](Cc2ccc(F)cc2)CC/C=C/C[C@H]1CC(=O)N(CCO)Cc1ccccc1 was read as Vaccinia Venus inconclusive and VACV mCherry inh inactive.
Screening CC(C)N1CCC(N2CCN(Cc3cnc(-c4ccccc4)s3)CC2CCO)CC1 (configuration not stated) returned Vaccinia Venus -8% and VACV mCherry inh -10%.
CCN(CC(=O)NCc1ccc2c(c1)OCO2)S(=O)(=O)c1ccc(F)cc1 was read as Vaccinia Venus 7% and VACV mCherry inh -8%.
`O=S1(=O)N[C@H](Cc2ccccc2)COc2cccc(N3CCN(Cc4ccccc4F)CC3)c21` gave Vaccinia Venus -10% and VACV mCherry inh 8%.
For COc1ccc(-c2csc(N3CCN(C(=O)c4ccco4)CC3)n2)cc1 the results were Vaccinia Venus 2% and VACV mCherry inh -9%.
For CN(C(=O)c1ccc(OC2CCN(C(=O)c3cccnc3)CC2)cc1)C1CCCCC1 the results were Vaccinia Venus -11% and VACV mCherry inh inactive.
`Cc1cccc(-c2noc(CN(C(=O)c3ccc(Br)o3)C(C)C)n2)c1` gave Vaccinia Venus -2%.
For C/C(=N\NC(=O)COc1c(C)cccc1C)c1cccs1 the results were Vaccinia Venus -9% and VACV mCherry inh -10%.
Screening Cc1cc(C)n(C(=O)CCNC(=O)c2ccccc2Cl)n1 returned Vaccinia Venus -8% and VACV mCherry inh inactive.
`CC1(COS(N)(=O)=O)CCCCC1` gave Vaccinia Venus -1% and VACV mCherry inh inactive.
`CC(=O)c1cn(CC(=O)Nc2ccc(C)cc2C)c2ccccc12` gave Vaccinia Venus inconclusive.
C=CCOC(=O)C1=C(C)NC(=O)NC1C1CC=CCC1 (configuration not stated) was read as Vaccinia Venus -20% and VACV mCherry inh -28%.
Screening O=C(N/N=C1/C(=O)c2cccc3cccc1c23)c1ccc(Cl)cc1 returned Vaccinia Venus -6% and VACV mCherry inh inactive.
For O=C(C[C@H]1C/C=C\CC[C@H](Cc2ccc(F)cc2)C(=O)OC[C@H]2CCCN2C1=O)N[C@@H](CO)Cc1ccccc1 the results were Vaccinia Venus inconclusive and VACV mCherry inh -22%.
`NC(=O)c1ccc(NC(=O)CSc2nnc(C3CC3)n2C2CC2)cc1` gave Vaccinia Venus -4% and VACV mCherry inh -16%.
Screening O=C(CCN1CCc2ccccc2C1)Nc1ccccc1F returned Vaccinia Venus -5% and VACV mCherry inh inactive.
For Cc1scc(C(=O)NNC(=S)NC(C)c2ccccc2)c1C (configuration not stated) the results were Vaccinia Venus -14% and VACV mCherry inh -2%.

Bioassay records as filed in PubChem BioAssay.
